TRPV1 PAM = potentiators of human vanilloid receptor 1 (TRPV1). TRPV1-expressing cells, Fluo-8 calcium influx, capsaicin EC20 potentiation; host cell line not named in the record; control for the full effect not named in the record. potentiation, % at 8.33 µM. hit rate 0.02% among 320,000; active means potentiation above 80%; inconclusive means 30% to 80%; inactive means below 30%; further: 0% is about no effect
Target sequence (Q8NER1 whole entry, looked up): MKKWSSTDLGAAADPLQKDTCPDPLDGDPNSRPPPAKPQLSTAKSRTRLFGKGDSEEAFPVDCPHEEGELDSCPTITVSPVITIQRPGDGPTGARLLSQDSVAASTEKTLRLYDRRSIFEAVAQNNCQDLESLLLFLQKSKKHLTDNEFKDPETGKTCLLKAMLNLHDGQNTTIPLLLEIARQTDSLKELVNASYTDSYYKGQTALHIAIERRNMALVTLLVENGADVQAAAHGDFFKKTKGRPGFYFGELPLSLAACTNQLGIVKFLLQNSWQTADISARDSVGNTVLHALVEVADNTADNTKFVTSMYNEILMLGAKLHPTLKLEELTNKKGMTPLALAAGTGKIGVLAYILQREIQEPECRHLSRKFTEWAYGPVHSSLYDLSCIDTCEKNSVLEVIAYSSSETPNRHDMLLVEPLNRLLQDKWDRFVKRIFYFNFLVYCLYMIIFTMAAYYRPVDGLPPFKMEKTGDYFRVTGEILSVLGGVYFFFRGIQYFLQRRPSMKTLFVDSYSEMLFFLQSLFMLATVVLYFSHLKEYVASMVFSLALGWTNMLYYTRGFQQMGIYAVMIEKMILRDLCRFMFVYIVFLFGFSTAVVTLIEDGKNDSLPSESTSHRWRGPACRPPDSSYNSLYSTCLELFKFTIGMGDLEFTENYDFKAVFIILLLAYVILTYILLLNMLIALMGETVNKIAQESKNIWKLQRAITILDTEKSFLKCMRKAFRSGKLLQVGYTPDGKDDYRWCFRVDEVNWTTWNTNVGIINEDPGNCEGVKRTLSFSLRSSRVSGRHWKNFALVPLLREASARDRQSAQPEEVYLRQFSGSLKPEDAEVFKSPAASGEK
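Cells expressing TRPV1 were dye-loaded with Fluo-8 and read kinetically: 10 s baseline, 3 min after compound (agonist portion), then 2 min after EC20 capsaicin (allosteric enhancer portion). Calcium-bound dye fluorescence at 480/520 nm.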
CtBP-E1A blk = CtBP/E1A binding inhibition. AlphaScreen GST-E1A/His-CtBP binding, 1536-well; hits give low values; control for the full effect not named in the record. activity change, % (concentration not given with the values). hit rate 0.49% among 340,000. AID 651724; in the data active means activity change below about -65%; inconclusive means about -30% to -65%; inactive means above about -30%; further: on the % scale 0 is the no-effect control and ±100 the full control effect
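Protein mix (5X: 125 nM each GST-E1A, His-CtBP) was incubated with pinned compound 2 h at 37 deg C in dark, in 50 mM Tris pH 8.0 buffer with 300 mM NaCl. Glutathione donor and nickel acceptor beads followed; AlphaScreen signal read after 1 h.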
D2 agonist = agonists of human D2 dopamine receptor (beta-arrestin); AID 624465; activation, % (test concentration not listed); hit rate 0.084% among 360,000; DiscoveRx PathHunter D2 beta-arrestin, luminescence, 90 min; 100% = 57 uM dopamine signal; in the data active = activation above about 40%; inconclusive = about 15% to 40%; inactive = below about 15%; further: compound concentration not given in the record; the text of the record calls up to 30% inactive
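DiscoveRx PathHunter D2 beta-arrestin cells (2,100/well) attached overnight, then compound-stimulated 90 min at 37 C in HBSS/10 mM HEPES/0.1% Tween-20 buffer; beta-galactosidase complementation read by luminescence after 1 h at ambient temperature. Dopamine 57 uM final (EC100) as control.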
D2 potentiator = potentiates the human D2 dopamine receptor allosterically | P14416 | DiscoveRx D2 beta-arrestin cells, luminescence, 90 min; 100% = 57 uM dopamine signal | potentiation, % (no concentration beside the values) | hit rate 0.23% among 360,000 | AID 624464; active = potentiation of 50% or more; inconclusive = 30% to 50%; inactive = 30% or less;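 further: compound concentration not given in the record; tested on top of an EC20 dose of dopamine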
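PathHunter D2 cells, attached overnight at 37 deg C, received compound in DMSO plus dopamine at EC20 (50 nM final) for 90 min at 37 deg C. Beta-arrestin recruitment was read as luminescence after 1 h with detection reagent at ambient temperature.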
PINK1 modulator = modulators of PINK1 expression; AID 624263; hit rate 0.2% among 410,000; PINK1 immunofluorescence, high-content cytometry, 24 h; Potency, µM (series often up to 76.6 µM), for inactives: at the top dose activation (PINK1 increase), usual class: activators; active = well fitted activation curve with a large enough effect; inconclusive = small, poorly fitted or top-dose-only effect; inactive = flat fitted curve, though single readings scatter; cell line not stated here;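 further: potency means the concentration at half of the fitted maximal effect; % of control where 0% means no effect; nearly all actives have a fitted effect of over 65% in size; a mitochondrial uncoupler was the plate control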
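PINK1 protein level read as immunofluorescence by microplate cytometer in a fixed, stained stable cell line after 24 h exposure to five compound concentrations, with CCCP as control.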
Six1-Eya2 blk = blocks human Six1 binding to Eya2; Q15475+O00167; AlphaScreen GST-Six1/His-Eya2 binding, biochemical; hits give low values; control for the full effect not named in the record; activity change, % (test concentration not listed); hit rate 0.56% among 360,000; in the data active = activity change below about -65%; inconclusive = about -30% to -65%; inactive = above about -30%; further: on the % scale 0 is the no-effect control and ±100 the full control effect; compound concentration not given in the record
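GST-Six1 + His-Eya2 (5X stock: 250/500 nM); Tris pH 8.0, 300 mM NaCl, 0.05% BSA, 0.02% Tween 20; GSH donor/Ni acceptor beads; 1 h 37 °C dark; AlphaScreen readout.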
Sfp inh = blocks B. subtilis Sfp PPTase activity | Biochemical Sfp PPTase activity, qHTS | Potency, µM, for inactives: max response, negative = inhibition, most hits filed as inhibitors | hit rate 3.5% among 310,000; active means well fitted inhibition curve with a large enough effect; inconclusive means small, poorly fitted or top-dose-only effect, or another doubt; inactive means no such curve, though single readings can be large or run the other way;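 further: the enzyme is Sfp with the accession as filed and its product quenches rhodamine fluorescence; potency means the concentration at half of the fitted maximal effect; 0% = enzyme reaction without inhibitor and -100% = no enzyme wells; top concentration of the series not given in the record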
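Reaction rates are the 30-min fluorescence difference (ex 525, em 598 nm) in wells containing 15 nM Sfp, 5 uM rhodamine-CoA and 12.5 uM BHQ-2-YbbR at pH 7.6 with 10 mM MgCl2.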
Starred values were filed as active, the others as inactive; ? = inconclusive; · = no result given; [ ] = remark or other dose.

SMILES	TRPV1 PAM	CtBP-E1A blk	D2 agonist	D2 potentiator	PINK1 modulator	Six1-Eya2 blk	Sfp inh
O=C(CSc1nnc(Cn2c(=O)sc3ccccc32)n1-c1ccccc1)N1CCCC1	2.0	1.8	-0.8	-0.7	-2.2%	0.3	16.4%
CCOC(=O)c1c(-c2ccccc2)csc1NC(=S)NC	20.2	3.2	-0.9	-6.2	-2.0%	6.6	3.3%
COC(=O)C(C)N1C(=O)S/C(=C\c2cc(C)n(-c3ccccn3)c2C)C1=O (stereo not given)	6.7	-5.6	0.6	12.2	0.2%	-9.2	-5.9%
Cc1ccc(CNC(=O)CCc2nc(-c3cccs3)no2)cc1	14.4	0.7	2.3	-1.7	1.4%	0.2	-2.4%
O=C(C[C@H]1C/C=C\C[C@H](Cc2ccc(F)cc2)C(=O)OC[C@@H]2CCCN2C1=O)N[C@H](CO)Cc1ccccc1	·	-11.6	-10.8	-3.2	-1.3%	12.3	·
COc1ccc(-n2c(SCC(=O)N3CCCC(C)C3)nnc2-c2cccnc2)cc1 (stereo not given)	-8.9	-10.0	-0.8	-8.9	-2.1%	-5.2	6.3%
CN1C(=O)/C(=C/c2cccc(Cl)c2)Sc2ccc(C(=O)N3CCCC3)cc21	2.4	·	1.2	0.1	1.3%	2.7	-23.7%
Cc1cc(NC(=O)CN2CCN(c3ccccn3)CC2)ccc1Br	-1.4	·	7.1	-1.8	0.7%	-1.7	2.0%
Nc1ccccc1N=Nc1ccccc1N	-18.3	-78.6*	-4.7	-9.8	8.8%	?	-1.6%
O=C(CSc1ccc(-c2ccc(Cl)cc2)nn1)Nc1ccc2c(c1)OCCO2	-8.8	-12.1	-2.1	18.4	14.8%	-0.2	16.3%
CCn1c(C)c(C(C)=O)c(N2CCCC2)nc1=S	15.6	-5.6	0.1	-10.4	-1.7%	7.2	-15.9%
Cc1[nH]n(-c2ccccc2)c(=O)c1/C=N/NC(=O)c1ccoc1C	4.5	-6.5	-4.8	-31.5	-0.4%	?	10.8%
CCN(C(=O)CSc1nnc(-c2ccccc2OC)n1N)c1c(N)n(Cc2ccccc2)c(=O)[nH]c1=O	·	2.2	0.7	-7.4	-0.2%	7.0	·
Nc1c(C(=O)Nc2ccc3c(c2)OCCO3)nnn1CCc1ccccc1	-4.0	1.1	1.5	0.3	4.2%	-2.8	0.3%
COc1ccc(C(=O)c2ccc(Br)cc2)cc1	0.0	12.3	2.1	3.1	8.1%[38.3 µM]	10.0	-17.1%
O=C(CCN1C(=O)c2ccccc2S1(=O)=O)N1CCN(c2ccccc2F)CC1	-0.7	1.4	-1.1	-0.5	0.7%	3.3	·
Cc1nc2cc(NC(=O)Nc3ccc(Br)cc3)ccc2o1	-10.0	-0.9	-1.7	6.1	2.2%	6.1	-3.2%
O=c1[nH]c(NCc2ccco2)nnc1Cc1ccccc1Cl	-3.0	-13.4	0.0	13.3	8.8%	-11.3	-6.5%
CC1=C(C(=O)OCC(C)C)C(c2ccccc2Cl)NC(=O)N1C (stereo not given)	3.8	1.8	2.5	-3.6	2.4%	21.5	-11.3%
CCC(C)NCCOc1ccc(C(C)(C)c2ccccc2)cc1 (stereo not given)	1.1	-7.1	-5.4	-16.7	-2.3%	-3.3	9.1%
Cc1c(NC(=O)c2ccc(N3C(=O)C4C5C=CC(C5)C4C3=O)cc2)c(=O)n(-c2ccccc2)n1C (stereo not given)	4.3	7.0	-1.5	-17.4	-1.2%	5.1	7.8%
CCOC(=O)C1(CC2CCCCO2)CCN(S(=O)(=O)c2ccccc2)CC1 (stereo not given)	-16.5	-1.1	-3.4	-10.8	1.3%	9.6	5.9%
CC(=O)c1cc2c(cc1NC(=O)Cn1nc(-c3ccc(F)cc3)ccc1=O)OCO2	-7.0	14.2	-0.7	1.5	0.2%	-10.5	8.3%
CCSCCOC(=O)C1=C(C)NC(=O)NC1c1ccc2c(c1)OCO2 (stereo not given)	1.0	-0.6	-5.6	2.0	-1.0%	-9.3	7.2%
O=C1CC(c2ccccc2)=NN1c1nc(-c2ccccc2)cs1	15.5	2.3	-6.0	2.9	-2.5%	-12.1	5.2%
Cc1cc(C(=O)Nc2ccncc2)ccc1[N+](=O)[O-]	-17.8	10.7	-1.8	0.1	-3.5%	0.4	18.1%
CC(Sc1nc(=O)cc(N)n1CCc1ccccc1)C(=O)NCc1ccccc1 (stereo not given)	?	21.7	-3.4	1.5	0.2%	2.1	10.5%
CCn1nnnc1-c1ccc(OC)c(S(=O)(=O)Nc2ccc(OC)cc2)c1	?	0.0	1.0	7.0	4.3%[38.3 µM]	20.1	10.4%
COc1ccccc1-n1ccnc1SCC(=O)NCc1ccco1	1.0	7.4	-16.4	-13.5	1.3%	-10.0	15.8%
Cc1ccc(N=Nc2[nH]c3ccccc3c2O)cc1	-13.2	3.8	-7.9	-5.1	0.6%	-3.3	-13.7%
COc1ccc(C(C)(C)C)cc1NC(=O)C1CCCO1 (stereo not given)	-21.1	13.3	-5.4	-11.9	3.5%	29.3	6.0%
COc1ccccc1OCC#CCNC1CCCCC1C (stereo not given)	0.7	·	1.0	-18.5	-0.7%	-0.2	-8.3%
Cc1ccc(NC(=O)c2cc(NC(=O)CCCC(=O)O)ccc2Cl)cc1Cl	10.2	-29.8	0.6	2.3	-0.3%	-20.9	15.2%
CCOC(=O)C1=C(C)NC(C)=C(C(=O)OCC)C1C(=O)OCC(=O)NC1(C#N)CCCCC1	0.3	-5.9	-4.9	-7.5	-0.8%	4.9	·
O=C(CCN1C(=O)c2ccccc2C1=O)N1CCCCCC1	7.1	-1.1	-1.7	-0.6	-0.6%	7.5	?
O=C1CCCCCCCN1Cc1ccccc1	·	·	-3.5	-14.1	2.0%	9.5	·
COc1ccc(NS(=O)(=O)c2ccc3c(c2)NC(=O)CC(=O)N3)cc1OC	8.6	-4.9	0.2	-13.1	-0.2%	-2.5	-1.7%
O=C(c1cc(-c2ccco2)nc2ccccc12)N1CCN(Cc2ccccc2)CC1	-24.3	-13.3	9.0	-3.5	-1.4%	-4.9	·
O=C(Nc1nc(-c2ccc(Oc3ccccc3)cc2)cs1)C1=COCCO1	-0.7	-5.1	2.5	-1.8	3.3%	-4.8	-10.7%
COc1ccccc1NCC(=O)N/N=C/c1cccnc1	6.6	2.9	-1.5	9.8	3.4%[38.3 µM]	-0.4	6.8%

A second format for some results above.
> CCOC(=O)C1=C(C)NC(C)=C(C(=O)OCC)C1C(=O)OCC(=O)NC1(C#N)CCCCC1
  TRPV1 PAM = 0.3 | CtBP-E1A blk = -5.9 | D2 agonist = -4.9 | D2 potentiator = -7.5 | PINK1 modulator = -0.8% | Six1-Eya2 blk = 4.9 | Sfp inh = ·

> COc1ccc(NS(=O)(=O)c2ccc3c(c2)NC(=O)CC(=O)N3)cc1OC
  TRPV1 PAM = 8.6 | CtBP-E1A blk = -4.9 | D2 agonist = 0.2 | D2 potentiator = -13.1 | PINK1 modulator = -0.2% | Six1-Eya2 blk = -2.5 | Sfp inh = -1.7%

Other records follow.
SMILES	TRPV1 PAM	CtBP-E1A blk	D2 agonist	D2 potentiator	PINK1 modulator	Six1-Eya2 blk	Sfp inh
COc1ccc(C2C3=C(CC(C)(C)CC3=O)OC(N)=C2[N+](=O)[O-])cc1 (stereo not given)	5.0	·	-6.5	-5.0	0.3%	4.0	-0.9%
O=C(OCC(=O)N1CCCC1)c1ccccc1C(=O)c1ccccc1	-5.9	0.8	-0.4	-2.4	-1.7%	4.4	·
Cc1cc2oc(C(=O)Nc3ccc(S(=O)(=O)N4CCCC(C)C4)cc3)cc(=O)c2cc1Cl (stereo not given)	2.7	-14.0	-0.6	15.5	9.9%	1.7	2.6%
Cc1c(C(=O)NC(C)c2ccncc2)oc2ccccc12 (stereo not given)	-46.7	2.4	2.8	2.1	9.5%[38.3 µM]	-1.6	5.6%
O=C1C(C=Nc2ccc(F)cc2)=C(O)c2ccccc21	-10.2	-18.4	-0.8	-31.5	0.8%	9.8	-3.7%
COCCn1c(=NC(=O)/C=C/c2ccccc2Cl)sc2cc(NC(C)=O)ccc21	5.1	1.9	-0.8	-12.1	0.2%	7.9	-20.9%
Cc1cccc(NC(=O)NCC2CC2)c1	18.2	7.1	-0.8	-2.4	0.8%	6.9	-13.5%
COc1cccc(C(=O)Nc2cc(NC(=O)c3cccs3)ccc2C)c1OC	-15.7	·	-1.4	10.9	0.5%	3.5	13.9%
O=S(=O)(NCc1cccnc1)c1cccn1-c1ncc(C(F)(F)F)cc1Cl	-1.3	1.3	3.3	-0.7	1.3%	6.9	10.0%
COc1cc(NC(=O)CCn2c(=S)oc3ccccc32)cc(OC)c1OC	-8.9	2.2	3.9	-6.1	3.3%	4.6	10.6%
O=C(NCC1CCCO1)c1ccc2c(=O)n(-c3ccccc3)c(=S)[nH]c2c1 (stereo not given)	6.1	4.9	-3.9	-6.0	0.6%	0.7	-11.0%
COc1cc(CN2CCN(CCOCCO)CC2)cc(OC)c1OC	-3.3	5.9	-1.6	-0.7	-6.1%[38.3 µM]	3.3	3.4%
Cc1ccc(N(CC(=O)N/N=C/c2ccc(OC3CSC3)cc2)S(=O)(=O)c2ccccc2)c(C)c1	-1.7	?	-8.1	-6.7	0.6%	-19.9	8.0%
Cc1nnc(NC(=O)CSc2nnc(CC(=O)Nc3ccccc3C)n2C)s1	0.4	-1.0	2.0	-2.6	-2.8%	-3.7	3.6%
COc1cc(OC)cc(C(=O)N/N=C\c2ccoc2)c1	-2.9	?	-7.0	-39.8	5.9%	?	9.9%
FC(F)(F)c1cc(N2CCN(Cc3ccccc3)CC2)c2ccccc2n1	-6.7	1.1	0.8	-20.0	5.3%	-3.3	8.8%
CCCN(CCC)C(=O)CSc1nc2ccccc2c(=O)n1C1CCCC1	-16.9	0.0	-3.8	6.6	-0.9%	22.6	-13.4%
CCOc1ccc(Br)cc1S(=O)(=O)N1CCC(C(=O)O)CC1	2.7	4.4	-2.7	-2.0	-0.3%	4.4	25.3%
O=C(c1cccnc1)N1N=C(c2cccs2)CC1c1ccc(F)cc1 (stereo not given)	-9.0	-8.1	-0.6	-6.4	1.1%	2.1	-23.3%
COc1ccc(OCc2nn3c(-c4cccc(OC)c4)nnc3s2)cc1	-15.4	1.5	0.9	-7.4	1.3%	1.7	?
O=C(CNC(=O)c1ccc(N2C(=O)c3ccccc3C2=O)cc1)OCC(=O)c1cccc2ccccc12	4.0	-24.1	-2.2	6.3	2.0%	3.1	-17.0%

Screening results deposited in PubChem BioAssay by National Center for Advancing Translational Sciences (NCATS).
